# StopGo reporter – FMDV 2A StopGo reporter, luciferase signal; human cells with a luciferase reporter of 2A StopGo recoding; control for the full effect not named in the record; Potency, µM (titrated, usually from 57.9 µM), inactives show top-dose signal change, negative = less light; actives 1.2% (n = 410,000); AID 1159524; active = well fitted falling curve with a large enough effect; inconclusive = small, poorly fitted or top-dose-only effect; inactive = no such curve, though single readings can be large or run the other way; tested in HEK293T cells; further: on the % scale 0 is the no-effect control and ±100 the full control effect; nearly all actives have a fitted effect of over 45% in size; luciferase light after 4 h
# Lassa entry inh – inhibitors of Lassa virus binding or cell entry; Lassa virus pseudotype entry inhibition, cell reporter; control for the full effect not named in the record; Potency, µM (series often up to 37.9 µM), without a hit: top-dose activity change, negative = inhibition, actives largely listed as inhibitors; actives 1.2% (n = 300,000); active means well fitted inhibition curve with a large enough effect; inconclusive means small, poorly fitted or top-dose-only effect, or effect the other way; inactive means flat fitted curve, though single readings scatter; tested in HEK293 cells; further: on the % scale 0 is the no-effect control and ±100 the full control effect; nearly all actives have a fitted effect of over 50% in size; luciferase read-out
# Cruzain inh Det – inhibitors of Trypanosoma cruzi cruzain with detergent | purified cruzain, Z-FR-AMC fluorescence, 0.01% Triton | P25779 | Potency, µM, inactives show max response, negative = inhibition, most hits filed as inhibitors | actives 0.43% (n = 200,000); active means well fitted curve in the direction sought with a large enough effect; inconclusive means small, poorly fitted or top-dose-only effect, or another doubt; inactive means no such curve, though single readings can be large; an effect the other way counts as inactive or inconclusive;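 further: plate controls were neutral wells for no effect and buffer without enzyme for full effect; nearly all actives have a fitted effect of over 40% in size; top concentration of the series not given in the record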
# Target sequence (P25779 123-467 limits assumed): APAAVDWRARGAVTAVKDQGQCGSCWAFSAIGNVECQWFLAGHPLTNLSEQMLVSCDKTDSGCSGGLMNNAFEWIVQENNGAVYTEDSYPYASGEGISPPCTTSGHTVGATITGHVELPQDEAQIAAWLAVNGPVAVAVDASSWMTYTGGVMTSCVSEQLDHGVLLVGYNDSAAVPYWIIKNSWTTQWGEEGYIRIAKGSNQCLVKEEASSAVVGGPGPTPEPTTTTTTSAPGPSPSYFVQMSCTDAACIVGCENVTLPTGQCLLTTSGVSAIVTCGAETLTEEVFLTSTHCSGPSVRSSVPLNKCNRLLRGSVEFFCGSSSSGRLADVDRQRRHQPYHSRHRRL
#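 Enzyme 1.5 nM, Z-FR-AMC 2 uM, NaOAc 100 mM pH 5.5, DTT 5 mM, Triton X-100 0.01%; 15 min RT compound preincubation; kinetic ex360/em450, 60 s delta.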
# RE007 growth inh – less growth of the S. pombe RE007 Vpr strain; S. pombe RE007 Vpr strain, BacTiter-Glo ATP luminescence, 24 h; control for the full effect not named in the record; actives 0.21% (n = 360,000); AID 651644; Potency, µM (titrated, usually from 92.2 µM), inactives show at the highest dose activity change, negative = less growth; active = well fitted falling curve with a large enough effect; inconclusive = small, poorly fitted or top-dose-only effect; inactive = no such curve, though single readings can be large or run the other way;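 further: on the % scale 0 is the no-effect control and ±100 the full control effect; nearly all actives have a fitted effect of over 50% in size; the assay follows cell death caused by Vpr and the record does not say whether a fall means rescue or toxicity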
#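 Fission yeast strain RE007, carrying one chromosomally integrated HIV-1 vpr copy, was seeded at OD 0.01 in PMG+AL medium with 23 nL pinned compound. After 24 h at 30 °C and 99% humidity, viability was read by BacTiter-Glo luminescence.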
# Marburg entry inh – Marburg virus entry inhibition. Marburg virus pseudotyped entry inhibition, cell reporter; control for the full effect not named in the record; about a third of the inactives were read at about 46 µM. Potency, µM (highest dose often 37.8 µM), without a hit: at the top dose activity change, negative = inhibition, usual class: inhibitors. actives 1.8% (n = 300,000); active = well fitted inhibition curve with a large enough effect; inconclusive = small, poorly fitted or top-dose-only effect, or effect the other way; inactive = flat fitted curve, though single readings scatter; tested in HEK293 cells; about a fifth of its hits are not listed in these tables; further: on the % scale 0 is the no-effect control and ±100 the full control effect; luciferase read-out
# SARS PLP yeast – inhibitors of SARS-CoV papain-like protease in yeast; S. cerevisiae expressing SARS-CoV PLpro, growth rescue; control for the full effect not named in the record; Potency, µM (series often up to 32.9 µM), for inactives: at the highest dose activity, positive = growth rescue; actives 0.19% (n = 330,000); AID 485353; further: 0% is about no effect; nearly all actives have a fitted effect of over 55% in size; growth read by luminescence after 48 h
# Cruzain noTriton – cruzain (T. cruzi) inhibition without detergent. P25779. purified cruzain, Z-FR-AMC fluorescence, no detergent. Potency, µM, inactives show max response, negative = inhibition, hits mostly inhibitors. actives 2.3% (n = 200,000). AID 1476; active means well fitted curve in the direction sought with a large enough effect; inconclusive means small, poorly fitted or top-dose-only effect, or another doubt; inactive means no such curve, though single readings can be large; an effect the other way counts as inactive or inconclusive;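 further: plate controls were enzyme without inhibitor for no effect and buffer without enzyme for full effect; nearly all actives have a fitted effect of over 40% in size; top concentration of the series not given in the record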
#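 Purified cruzain at 1.5 nM, pre-incubated 15 min with compound at room temperature in 100 mM sodium acetate pH 5.5, 5 mM DTT, 0.00005% Triton X-100. Reaction started with 2 uM Z-FR-AMC; AMC fluorescence increase over 60 s gives rate.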
# NS1 inh – influenza NS1 inhibition; S. cerevisiae slowed by influenza A NS1, growth recovery by OD600; Potency, µM (titrated, usually from 46.1 µM), inactives show top-dose activity, positive = more growth; actives 0.4% (n = 270,000); AID 2326; further: actives are rising curves; nearly all actives have a fitted effect of over 50% in size
#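 OD600 was taken as the measure of yeast growth restored by compound in an NS1-expressing S. cerevisiae strain. Cells had been washed out of glucose medium and diluted 1:100 into galactose -URA medium, pH 6.0.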
# The depositor's hits bear a star; ? = inconclusive; . = not tested or not shown; & = joins results of further samples; [ ] = remark or other dose. Unless noted, the call rests on the fitted dose curve; in most records, active means well fitted rising curve with a large enough effect; inconclusive means small, poorly fitted or top-dose-only effect; inactive means no such curve, though single readings can be large or run the other way. Potency means the concentration at half of the fitted maximal effect.
SMILES,StopGo reporter,Lassa entry inh,Cruzain inh Det,RE007 growth inh,Marburg entry inh,SARS PLP yeast,Cruzain noTriton,NS1 inh
O=[N+]([O-])c1ccccc1CN1CCN(Cc2ccccn2)CC1,68%[activator],-10%,.,-5%,-3%[46.1 µM],-5%,.,.
Cc1cccc(-c2noc(-c3cc(C(C)C)[nH]n3)n2)c1,-6%,14%[46.1 µM],-11%,.,.,.,12%,.
Cc1ccc(CNC(=O)CO/N=C/c2ccc3c(c2)OCO3)cc1,-19%,-16%,-1.4%,-5%,2%,-2%,-15%,-13%
N#Cc1cccc(C#N)c1NCC1CCCO1 (stereo not drawn),2%,.,.,3%,.,0%,.,-1%
O=C(CCS(=O)(=O)c1cccc2nonc12)NCc1ccc(Cl)cc1,-9%,-2%,.,-4%,3%[46.1 µM],2%,.,.
Cc1ccnc(SCC(=O)Nc2cc(C)on2)n1,7%,21%[46.1 µM],.,-3%,5%[46.1 µM],0%,.,8%
COc1ccc(/C=C2\C(=O)ON=C2c2ccccc2)cc1OC,?,.,.,6%,.,2%,.,17%
CC(=O)Nc1ccc(S(=O)(=O)NC2=NCN(c3ccc([N+](=O)[O-])cc3)CN2)cc1,-11%,.,.,3%,.,0%,.,16%
O=C(COC(=O)CCc1ccc(S(=O)(=O)N2CCOCC2)cc1)Nc1cccc(Cl)c1,-8%,-6%,.,-14%,15%[46.1 µM],0%,.,.
Cc1cc(C(=O)OCC(=O)Nc2cccc([N+](=O)[O-])c2)c(C)o1,-13%,-15%,.,-7%,-3%,-4%,.,.
COc1cccc(Oc2nnnn2-c2ccccc2)c1,61%[activator],18%,0.0%,-17%[3.69 µM],0%,1%,-2%,-34%
O=C(Nc1ccc2nn(-c3ccc(F)cc3)nc2c1)c1cccc2c(Cl)cccc12,0%,15%[46.1 µM],2.0%,.,0%[46.1 µM],.,-4%,.
O=C1CCCCN1CC(=O)N1CCCC(Nc2ccc(F)c(F)c2)C1 (stereo not drawn),28%,.,.,10%,.,2%,.,-1%
S=C(Nc1ccc(Cl)cc1)N1CCCCC1,68%[activator],17%,-1.5%,-11%,-4%,?,0%,18%
CCOc1cc(/C=C2\COc3ccccc3C2=O)cc(Br)c1OCC(=O)N(C)C,10µM*,?,.,16%,?,-59%,.,-44%
Cc1nn(C(C)C(=O)N2CCN(c3ccc(Cl)cc3)CC2)c(=O)c2cc3occc3n12 (stereo not drawn),?,?,-6.8%,.,?,.,?,.
COc1ccc(NC(=O)C(CCCCNC(=O)OC(C)(C)C)NC(=O)OCc2ccccc2)cc1 (stereo not drawn),-28%,2.1µM*,0.4%,0%,10%,4%,3%,-2%
CC(C)(C)NC(=O)NC(=O)COC(=O)Cn1cnc2ccccc2c1=O,-9%,2%,.,4%,-14%,-1%,.,.
Cc1cccc(OCCSc2nc(-c3cccs3)nc3cc(=O)[nH]n23)c1,-20%,6%[46.1 µM],1.7%,.,.,.,2%,.
Cc1cc(C)nc(SCC(=O)c2ccc(F)cc2F)n1,12%,.,.,9%,.,-2%,.,1%
COc1cc(/C=C2\C(=O)NC(=O)N(c3ccccc3)C2=O)c([N+](=O)[O-])cc1OC,-30%,3%,.,-14%,5%,0%,.,?
COc1ccc(C(=O)N/C(=C\c2ccccc2)C(=O)NCCCn2ccnc2)cc1,22%,.,.,9%,22%[46.1 µM],3%,.,2%
COC(=O)c1nnn(-c2nonc2N)c1CSc1nnc(C)s1,11%,-12%[46.1 µM],.,-2%,?,6%,.,.
CC(C)(C)NC(=O)C(OC(=O)c1ccco1)c1ccccc1F (stereo not drawn),8%,.,.,5%,.,-4%,.,16%
CCn1cc(CN2CCN(Cc3ccc(C)o3)C(CCO)C2)c2ccccc21 (stereo not drawn),-6%,-21%,.,-28%,?,0%,.,-1%
SMILES,StopGo reporter,Lassa entry inh,Cruzain inh Det,RE007 growth inh,Marburg entry inh,SARS PLP yeast,Cruzain noTriton,NS1 inh
CC(C)C[C@H](NC(=O)N1CCn2c1nc1ccccc12)C(=O)N[C@@H](C(=O)O)c1ccccc1,-15%,.,.,15%,.,-2%,.,11%
Cc1cc(S(=O)(=O)Nc2cccc(C(=O)O)c2)c(C)c(S(=O)(=O)c2ccc(Cl)cc2)c1,14%,-10%[46.1 µM],.,3%,-3%[46.1 µM],-1%,.,?
CC1CCCCN1C(=O)COc1ccc(F)cc1 (stereo not drawn),9%,10%,.,2%,-6%,0%,.,1%
CNc1ncc(C(=O)c2ccccc2)s1,0%,20%,-3.5%,-8%,?,-13%,4%,-26%
Cc1ccc(-c2nnc(SCc3ccccc3F)o2)cc1,10%,?,-6.8%,-12%,16µM*,-18%,-8%,-31%
Cc1cc(OCC(=O)NCc2cccnc2)ccc1[N+](=O)[O-],-6%,-12%,.,-5%,3%,2%,.,0%
C/C=C\C(=O)Nc1cccc(C2=NOC3(C2)C[C@H](C(N)=O)N(C(=O)/C=C/CC)C3)c1 (stereo partly drawn),-4%,.,.,-12%,.,1%,.,2%
Cc1c(C(c2ccccc2O)c2c(C)n(C)n(-c3ccccc3)c2=O)c(=O)n(-c2ccccc2)n1C,-1%,.,.,7%,.,-1%,.,-3%
CCC(=O)N1CCc2cc(S(=O)(=O)NC(C(=O)Nc3cc(OC)cc(OC)c3)C(C)C)ccc21 (stereo not drawn),-23%,-10%[46.1 µM],-3.9%,.,-8%[46.1 µM],.,-4%,.
O=C(CN(Cc1ccc(Cl)cc1)S(=O)(=O)c1ccccc1)NCC1CCCO1 (stereo not drawn),-10%,?,.,-23%,?,-2%,.,-6%
O=[N+]([O-])c1ccc(CN2CCN(c3ccc4ccccc4n3)CC2)cc1,?,21%[46.1 µM],.,-5%,18%[46.1 µM],-1%,.,.
CC(C)CNC(=O)COC(=O)c1cncc(Br)c1,46%[activator],10%,-0.6%,16%,1%,8%,5%,9%
O=C(CC(=O)N/N=C/c1cccs1)NCc1ccccc1,21%,0%[46.1 µM],.,-6%,18%[46.1 µM],-4%,.,.
Cc1ccnn1CCC(=O)O,-10%,.,.,-9%,-4%,-1%,.,?
CCCCCN1CN(S(=O)(=O)c2cccs2)c2nc3ccccc3nc21,14%,6%,.,-10%,0%,1%,.,-32%
CCCCc1nc2sc3c(=O)n(N)cnc3c2c2c1CCC2,4%,.,.,-7%,.,-1%,.,-3%
CCN(CC)N=Nc1ccc(S(=O)(=O)N2CCSC2C(=O)O)cc1 (stereo not drawn),-12%,3%,.,0%,6%[46.1 µM],0%,.,5%
O=C(Nc1ccnc(-c2cccnc2)n1)c1cccc(Cl)c1Cl,?,-18%,3.2%,-9%,5%,3%,3%,-10%
Cc1nc(N2CCN(C(=O)CCC(=O)O)CC2)c2c(C)c(C)sc2n1,.,-7%,-0.2%,1%,12%,-2%,-11%,5%
O=C(NN=C1CCCCCC1)c1cc(-c2ccccc2)nc2ccccc12,-17%,?,-1.0%,1%,?,-1%,3%,6%
NNC(=O)/C(=C/c1cccs1)NC(=O)c1ccccc1Cl,-13%,?,.,17%,1%,-1%,.,12%
CCOc1ccccc1NC(=O)c1sc(-n2nc(C)c(CCC(C)C)c2C)nc1C,2%,-23%[46.1 µM],-2.1%,.,?,.,4%,.
CCc1nnc(NC(=O)CSc2nnc(COc3ccccc3)n2-c2ccc(C)cc2)s1,5%,-10%,0.3%,9%,14%&14%,3%,8%,-8%
CCn1nccc1C(=O)Nc1cc(Cl)cc(Cl)c1,-19%,-9%,-11%,-10%,?,-19%,0%,-25%
O=C(c1c[nH]cc1-c1ccccc1)c1cccc2ccccc12,-21%,-16%,-8.3%,13%,12µM*,-4%,7%,7%
SMILES,StopGo reporter,Lassa entry inh,Cruzain inh Det,RE007 growth inh,Marburg entry inh,SARS PLP yeast,Cruzain noTriton,NS1 inh
Cc1cc(C)cc(OC(C)C(=O)Nc2ccc(S(=O)(=O)Nc3cc(C)nc(C)n3)cc2)c1 (stereo not drawn),36%[activator],?,.,4%,-10%,-12%,.,-9%
O=[N+]([O-])c1ccc(Nc2cccc(F)c2)nc1,-16%,.,.,-27%,.,-1%,.,-9%
Cc1cccn2c(=O)c3cc(C#N)c(=NC(=O)c4cccnc4)n(CC4CCCO4)c3nc12 (stereo not drawn),-18%,-2%,.,6%,4%,.,.,.
O=C1CC(c2ccc(F)cc2)CC2=C1C(c1ccc([N+](=O)[O-])o1)Nc1ccccc1N2 (stereo not drawn),-3%,?,.,0%,10µM*,0%,.,7%
O=C(c1cccc(NS(=O)(=O)c2ccc(F)cc2)c1)N1CCN(c2ccccc2)CC1,-26%,?,.,-3%,?,-10%,.,.
COC(=O)c1ccc(CO/N=C/c2ccc(OC)cc2OC)cc1,-6%,.,.,9%,.,-1%,.,-7%
CCCOc1cccc(C(=O)Nc2ccc(CN3CCOCC3)cc2)c1,-21%,.,.,-9%,.,3%,.,2%
CC1CN(c2ccc(NC(=S)NNCCC#N)cc2)CC(C)O1 (stereo not drawn),43%[activator],-21%,.,-11%,0%[46.1 µM],-3%,.,-2%
CCOc1ccccc1CNS(=O)(=O)c1ccc(-c2cnc(C3CC3)o2)cc1,?,?,-5.4%,5%,.,-5%,0%,-18%
CC(=O)c1ccc(NC(=S)NN2C(C)CCCC2C)cc1 (stereo not drawn),0%,-5%,.,-4%,10%[46.1 µM],13%,.,.
COc1cc(OC)c2c(C)cc(=O)oc2c1C(CCN1CCOCC1)c1ccc2c(c1)OCO2 (stereo not drawn),35%[activator],.,.,-1%,.,0%,.,-4%
CC12CCC3C(CCC4CC(=O)C(C(O)C(F)(F)F)CC43C)C1CCC2O (stereo not drawn),-22%,-28%[46.1 µM],.,2%,4%[46.1 µM],.,.,.
C/C(=N\NC(=O)c1ccc(Cl)cc1)c1cccnc1,16%,?,.,-5%,-20%[46.1 µM],-4%,.,-3%
CCC(Oc1ccccc1)C(=O)Nc1nnc(S(=O)(=O)N2CCCC2)s1 (stereo not drawn),-18%&-14%,1%[46.1 µM],-2.0%,5%,.,4%,4%,20%

# Source: PubChem
